Compound activity deposited in PubChem BioAssay by several laboratories.
Rce1 inhib: inhibitors of yeast Ras-converting enzyme. yeast membranes, quenched prenylated peptide cleavage fluorescence. 0.27% of 290,000 active. Q03530. AID 2563. calls only;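 active means fall in fluorescence gain of 50% or more versus controls, with final raw signal at or below 3038400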;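 further: plate controls were neutral control wells for no effect and wells lacking membranes for full effect; tested at 10 µM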
HIV Env fusion: inhibitors of HIV Env-mediated cell fusion. HeLa-JRFL Env/CEM21 cell fusion, luciferase. inhibition, % at 12.3 µM. 1.1% of 360,000 active;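 active means mean replicate inhibition score of at least 50 and every replicate individually at or above 50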;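 further: 0% = plate neutral controls and 100% = maraviroc near 300 nM; one replicate is shown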
eIF4H FP inh: inhibitors of RNA binding by human eIF4H; eIF4H fluorescence polarization binding assay; inhibition, % at 35 µM; Q15056; 0.94% of 290,000 active; AID 2012;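 active means 50% or more with normal probe brightness, or confirmed in later tests; about a fifth of its hits are not listed in these tables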;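 further: calls also rest on retests at 20 µM and on dose response follow-up; 0% = protein and probe with vehicle and 100% = probe without protein; strong numbers were not always called active; many hits fall short of the cut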
MT1-MMP act inh: blocks activation of human MT1-MMP. P50281. HT1080 RFP-PRO-GFP cells, GFP/RFP ratio fluorescence, overnight; percent of plate control window, DMSO zero. GFP/RFP ratio change, % at 20 µM. 0.061% of 360,000 active. AID 651647;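 active means GFP/RFP ratio change of at least 30% with cell ATP level not reduced by more than half and red fluorescence within 50% of control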; further: strong numbers were not always called active
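Material – HT1080 RFP-PRO-GFP cells · Control set – DMSO wells and RFP-L50D-GFP cells · Incubation – overnight cell settling, then overnight compound exposure, 37 °C, 5% CO2 · Compound dosing – single-point 20 µM compound, 1% DMSO · Read-out – GFP/RFP fluorescence ratio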
UUG fidelity: yeast start codon fidelity modulation; activity score, % at 18.7 µM; S. cerevisiae UUG-firefly luciferase reporter, luminescence/redox ratio; 0.13% of 350,000 active;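 active means replicate mean at a twofold rise or more, about +100% in these data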;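 further: firefly luciferase made from a UUG start codon reports start codon fidelity; reporter light over untreated wells divided by growth signal over untreated wells; some hits fall short of that in this replicate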
CSC inhib: cancer stem cell inhibition; cancer stem cell-like cells viability, luminescence; inhibition, % at 7.5 µM; 1.1% of 300,000 active; AID 2717;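 active means mean at 75% or more and at least half the replicates too; tested in HMLE shEcad cells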;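 further: 0% = median of negative and 100% = median of positive control wells; the first replicate is given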
PABP polyA inh: blocks human PABP binding to poly(A) RNA; P11940; fluorescence polarization; inhibition, % at 35 µM; 1% of 290,000 active; AID 2014;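 active means 50% or more with normal probe brightness, or confirmed in later tests; about a fifth of its hits are not listed in these tables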;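 further: calls also rest on retests at 20 µM and on dose response follow-up; controls were probe without protein and protein plus probe with vehicle; some compounds called inactive have numbers as strong as hits; many hits fall short of the cut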
Target sequence (P11940 whole entry, looked up): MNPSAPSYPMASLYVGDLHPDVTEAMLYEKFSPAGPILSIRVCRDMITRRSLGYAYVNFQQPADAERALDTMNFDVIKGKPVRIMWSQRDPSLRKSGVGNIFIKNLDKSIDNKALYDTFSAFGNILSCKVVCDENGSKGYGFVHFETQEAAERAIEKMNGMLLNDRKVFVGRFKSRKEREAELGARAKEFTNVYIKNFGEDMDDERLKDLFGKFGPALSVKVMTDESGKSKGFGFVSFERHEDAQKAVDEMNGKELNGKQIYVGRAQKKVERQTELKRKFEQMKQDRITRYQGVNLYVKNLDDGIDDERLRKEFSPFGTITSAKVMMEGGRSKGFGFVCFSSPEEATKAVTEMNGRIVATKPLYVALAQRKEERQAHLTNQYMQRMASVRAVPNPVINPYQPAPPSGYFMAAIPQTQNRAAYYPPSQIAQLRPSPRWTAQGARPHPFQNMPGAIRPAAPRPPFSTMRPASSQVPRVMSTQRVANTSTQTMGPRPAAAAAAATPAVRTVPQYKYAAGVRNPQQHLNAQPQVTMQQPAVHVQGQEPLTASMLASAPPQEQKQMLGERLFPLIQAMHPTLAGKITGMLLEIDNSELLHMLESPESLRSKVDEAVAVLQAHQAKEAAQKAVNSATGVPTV
eIF4H FP inh retest: also measured in eIF4H FP inh; calls as there; inhibition, %; compound at 20 µM; confirmation average;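 mean of two retest wells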
PABP polyA inh retest: further read-out of PABP polyA inh, marked with its call; inhibition, %; compound at 20 µM; confirmation repeats;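 mean of two retest wells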
MT1-MMP act inh RFP: second read-out of MT1-MMP act inh, no call of its own (marks repeat the call); RFP signal change, %; measured here: RFP expression control read;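 0 = vehicle wells; hits needed this value within 50% of zero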
Starred values were filed as active, the others as inactive; & = joins results of further samples.

How did Cc1ccc2nc(C(=O)N3CCCC(Nc4ccc(F)cc4)C3)cn2c1 (stereo unspecified) do in these assays?
Rce1 inhib: inactive; HIV Env fusion: 4; eIF4H FP inh: -5; MT1-MMP act inh: 1; UUG fidelity: -19; CSC inhib: -4; PABP polyA inh: 9; MT1-MMP act inh RFP: -3

How did COc1ccc(C(=O)COc2ccc(F)cc2)c(O)c1C do in these assays?
eIF4H FP inh: -8; MT1-MMP act inh: 3; UUG fidelity: -13; CSC inhib: 14; PABP polyA inh: -10; MT1-MMP act inh RFP: 3

Results for Cc1nn(-c2ccccc2)c(N)c1N=Nc1cccnc1 ?
Rce1 inhib: inactive; HIV Env fusion: -25; eIF4H FP inh: -1; MT1-MMP act inh: 0; CSC inhib: 26; PABP polyA inh: 3; MT1-MMP act inh RFP: 1

What do the screens show for `COc1ccc(Cl)cc1S(=O)(=O)NC(C)c1cnn(-c2ccccn2)c1C` (stereo unspecified)?
HIV Env fusion: 13; MT1-MMP act inh: -1; UUG fidelity: -6; MT1-MMP act inh RFP: 2

What do the screens show for `CC(=O)c1sc(NC(=O)c2oc3ccc(F)cc3c2C)nc1C`?
HIV Env fusion: -49; MT1-MMP act inh: 1; UUG fidelity: -1; CSC inhib: -5; MT1-MMP act inh RFP: 1

Results for C[C@@H]1CCCCO[C@H](CN(C)C(=O)Nc2ccccc2)[C@@H](C)CN([C@H](C)CO)C(=O)c2cc(NS(=O)(=O)c3cn(C)cn3)ccc2O1 ?
HIV Env fusion: 16; MT1-MMP act inh: 1; UUG fidelity: 11&-28; MT1-MMP act inh RFP: 3

How did Nc1ncc2c(n1)-c1ccccc1CC2 do in these assays?
Rce1 inhib: inactive; HIV Env fusion: 1; eIF4H FP inh: -10; MT1-MMP act inh: -13; UUG fidelity: -14; CSC inhib: 0; PABP polyA inh: -4; MT1-MMP act inh RFP: -9

How did O=C(COC(=O)CCc1nc2ccccc2c(=O)[nH]1)Nc1ccc2c(c1)OCO2 do in these assays?
Rce1 inhib: inactive; HIV Env fusion: 7; eIF4H FP inh: -1; MT1-MMP act inh: -1; CSC inhib: -4; PABP polyA inh: 3; MT1-MMP act inh RFP: 4

How did CNC(=O)c1ccc(Nc2nnc(-c3ccc(C)c(S(N)(=O)=O)c3)c3ccccc23)cc1 do in these assays?
Rce1 inhib: inactive; HIV Env fusion: -1; eIF4H FP inh: -5; MT1-MMP act inh: 6; UUG fidelity: 2; CSC inhib: 0; PABP polyA inh: 10; MT1-MMP act inh RFP: -2

Results for Cc1cc(C)nc(NC(=O)Cc2ccc(Br)cc2)n1 ?
Rce1 inhib: inactive; HIV Env fusion: -1; eIF4H FP inh: -1; MT1-MMP act inh: 1; UUG fidelity: -7; CSC inhib: -6; PABP polyA inh: -16; MT1-MMP act inh RFP: -2

Results for CC(=O)Nc1nc(C)nc(C)c1C(C)=O ?
Rce1 inhib: inactive; eIF4H FP inh: -2; MT1-MMP act inh: -1; UUG fidelity: 9; CSC inhib: -10; PABP polyA inh: -6; MT1-MMP act inh RFP: 3

What do the screens show for `COc1cc(NC(=O)c2cccnc2Sc2ccc(Cl)cc2)cc(OC)c1OC`?
Rce1 inhib: inactive; HIV Env fusion: -31; eIF4H FP inh: -2; MT1-MMP act inh: 7; CSC inhib: -5; PABP polyA inh: -2; MT1-MMP act inh RFP: -1

Results for O=c1[nH]c(CN2CCOCC2)nc2ccccc12 ?
Rce1 inhib: inactive; HIV Env fusion: -5; eIF4H FP inh: 4; MT1-MMP act inh: 1; UUG fidelity: 10; CSC inhib: -4; PABP polyA inh: 1; MT1-MMP act inh RFP: 2

How did CCN(CC)CCN1C(=O)c2ccccc2NC1c1cc(OC)c(OC)c(OC)c1 (stereo unspecified) do in these assays?
Rce1 inhib: inactive; eIF4H FP inh: 3; MT1-MMP act inh: 6; UUG fidelity: -2; CSC inhib: -6; PABP polyA inh: 4; MT1-MMP act inh RFP: 4

What do the screens show for `CCOC(=O)C1=CN(Cc2ccco2)S(=O)(=O)N(C)C1c1ccccc1` (stereo unspecified)?
HIV Env fusion: -4; MT1-MMP act inh: 2; UUG fidelity: -8; MT1-MMP act inh RFP: -3

What do the screens show for `CC(C)c1ccc(NC(=O)C2CCCCC2C(=O)O)cc1` (stereo unspecified)?
Rce1 inhib: inactive; HIV Env fusion: -1; eIF4H FP inh: -14; MT1-MMP act inh: 7; UUG fidelity: -18; CSC inhib: -14; PABP polyA inh: -9; MT1-MMP act inh RFP: 9

What do the screens show for `C=CCNc1nc(C(=O)OCC(=O)c2ccc(F)cc2)cs1`?
Rce1 inhib: inactive; HIV Env fusion: -9; MT1-MMP act inh: 3; UUG fidelity: -20; CSC inhib: -6; MT1-MMP act inh RFP: 7

How did Nc1nnc(SCC(=O)NNC(=O)c2ccc(F)cc2)s1 do in these assays?
HIV Env fusion: -1; MT1-MMP act inh: 3; UUG fidelity: -22; MT1-MMP act inh RFP: 3

What do the screens show for `O=C(NCCS(=O)(=O)N1CCN(c2ccccc2)CC1)c1cccc(F)c1`?
Rce1 inhib: inactive; HIV Env fusion: 2; MT1-MMP act inh: 0; UUG fidelity: -17; CSC inhib: -6; MT1-MMP act inh RFP: -2

What do the screens show for `CCOC(=O)C1CCCN(S(=O)(=O)c2cc3c(cc2Cl)NC(=O)CO3)C1` (stereo unspecified)?
Rce1 inhib: inactive; HIV Env fusion: -3; eIF4H FP inh: 11; MT1-MMP act inh: 9; UUG fidelity: 11; CSC inhib: -6; PABP polyA inh: 7; MT1-MMP act inh RFP: 1

Continued; it opens with the two that closed the last part.
What do the screens show for `O=C(NCCS(=O)(=O)N1CCN(c2ccccc2)CC1)c1cccc(F)c1`?
Rce1 inhib: inactive; HIV Env fusion: 2; MT1-MMP act inh: 0; UUG fidelity: -17; CSC inhib: -6; MT1-MMP act inh RFP: -2

What do the screens show for `CCOC(=O)C1CCCN(S(=O)(=O)c2cc3c(cc2Cl)NC(=O)CO3)C1` (stereo unspecified)?
Rce1 inhib: inactive; HIV Env fusion: -3; eIF4H FP inh: 11; MT1-MMP act inh: 9; UUG fidelity: 11; CSC inhib: -6; PABP polyA inh: 7; MT1-MMP act inh RFP: 1

What do the screens show for `O=C(OCC(=O)N1CCN(C(=O)c2ccco2)CC1)c1ccccc1NCCO`?
Rce1 inhib: inactive; HIV Env fusion: -15; MT1-MMP act inh: 1; UUG fidelity: -20; CSC inhib: -9; MT1-MMP act inh RFP: 5

How did CC(C)N(C(=O)CSc1nnc(NC(=O)Cc2cccs2)s1)C(C)C do in these assays?
Rce1 inhib: inactive; HIV Env fusion: -6; eIF4H FP inh: 4; MT1-MMP act inh: -1; CSC inhib: -8; PABP polyA inh: 10; MT1-MMP act inh RFP: -2

Results for CCOC(=O)c1c(NC(=O)CSc2ncn[nH]2)sc(C(=O)N(C)C)c1C ?
Rce1 inhib: inactive; MT1-MMP act inh: 8; UUG fidelity: -4; CSC inhib: -5; MT1-MMP act inh RFP: 1

Results for O=C(Nc1cccc(C(=O)NC2CC2)c1)c1ccc(F)c(S(=O)(=O)N2CCOCC2)c1 ?
HIV Env fusion: -12; MT1-MMP act inh: 6; UUG fidelity: -19; MT1-MMP act inh RFP: -2

How did O=C(CCSCCc1ccccn1)Nc1cccc([N+](=O)[O-])c1 do in these assays?
Rce1 inhib: inactive; HIV Env fusion: -8; eIF4H FP inh: -13; MT1-MMP act inh: 6; CSC inhib: -5; PABP polyA inh: 8; MT1-MMP act inh RFP: 2

Results for CN(C)CCNc1ncnc2ccccc12 ?
Rce1 inhib: inactive; HIV Env fusion: -71; eIF4H FP inh: -1; MT1-MMP act inh: -1; UUG fidelity: 0; PABP polyA inh: 12; MT1-MMP act inh RFP: 4

What do the screens show for `CCCn1c(=N)c(S(=O)(=O)c2ccccc2)cc2c(=O)n3cccc(C)c3nc21`?
HIV Env fusion: 5; eIF4H FP inh: -14; MT1-MMP act inh: 2; UUG fidelity: -8; CSC inhib: -7; PABP polyA inh: -7; MT1-MMP act inh RFP: -1

What do the screens show for `CCc1ccc(NC(=S)NCc2cccnc2)cc1`?
Rce1 inhib: inactive; HIV Env fusion: 10; eIF4H FP inh: -4; MT1-MMP act inh: 6; UUG fidelity: -24; CSC inhib: 7; PABP polyA inh: -9; MT1-MMP act inh RFP: -3

Results for CC(C)(CO)NCc1ccccc1OCC(=O)Nc1ccccc1 ?
Rce1 inhib: inactive; HIV Env fusion: -82; eIF4H FP inh: -5; MT1-MMP act inh: 4; UUG fidelity: 0; CSC inhib: -5; PABP polyA inh: 7; MT1-MMP act inh RFP: -2

Results for CCn1ccnc1CNC(=O)c1ccc2oc(CCCc3ccccc3)nc2c1 ?
Rce1 inhib: inactive; HIV Env fusion: -2; eIF4H FP inh: -7; MT1-MMP act inh: 1; UUG fidelity: -18; CSC inhib: -5; PABP polyA inh: 2; MT1-MMP act inh RFP: -3

Results for Cc1c(C(=O)N2CCC(Cc3ccccc3)CC2)sc2ncnc(N3CCC(C)CC3)c12 ?
Rce1 inhib: inactive; HIV Env fusion: -24; eIF4H FP inh: -2; MT1-MMP act inh: -1; CSC inhib: 60; PABP polyA inh: -2; MT1-MMP act inh RFP: -4

Results for Cc1ccc(S(=O)(=O)N2CCOCC2)cc1NC(=O)COC(=O)c1cc(=O)c2ccccc2o1 ?
Rce1 inhib: inactive; HIV Env fusion: 12; eIF4H FP inh: 70; MT1-MMP act inh: 0; UUG fidelity: -9; CSC inhib: -20; PABP polyA inh: 9; eIF4H FP inh retest: 14; PABP polyA inh retest: 31; MT1-MMP act inh RFP: 7

How did CCN(CC)CCN1C(=O)C(=O)/C(=C(/O)c2ccccc2)C1c1ccccc1F (stereo unspecified) do in these assays?
Rce1 inhib: inactive; eIF4H FP inh: -3; MT1-MMP act inh: 3; UUG fidelity: -33; CSC inhib: -3; PABP polyA inh: -9; MT1-MMP act inh RFP: 5

How did Cc1ncccc1C(=O)N1CCCC(CCC(=O)N2CCN(c3ccccn3)CC2)C1 (stereo unspecified) do in these assays?
Rce1 inhib: inactive; HIV Env fusion: 6; eIF4H FP inh: 2; MT1-MMP act inh: 1; CSC inhib: -1; PABP polyA inh: 2; MT1-MMP act inh RFP: 1

Results for O=C(CN1C(=O)CSc2ccc(S(=O)(=O)N3CCOCC3)cc21)N1CCCCC1 ?
Rce1 inhib: inactive; HIV Env fusion: 1; MT1-MMP act inh: -1; UUG fidelity: -21; CSC inhib: -9; MT1-MMP act inh RFP: 1

What do the screens show for `CC1=NN(C(=S)Nc2ccccc2)C(C)(C)C1`?
HIV Env fusion: -27; eIF4H FP inh: -5; MT1-MMP act inh: 2; UUG fidelity: -22; CSC inhib: -9; PABP polyA inh: -2; MT1-MMP act inh RFP: 0

Results for CC(OC(=O)C1CCN(S(=O)(=O)c2ccc(C(C)(C)C)cc2)CC1)C(=O)N1CCOCC1 (stereo unspecified) ?
Rce1 inhib: inactive; HIV Env fusion: 16; MT1-MMP act inh: 8; UUG fidelity: -12; CSC inhib: 32; MT1-MMP act inh RFP: -3

Arranged by number of heavy atoms (low to high): part of the list above.
What do the screens show for `CCc1ccc(NC(=S)NCc2cccnc2)cc1`?
Rce1 inhib: inactive; HIV Env fusion: 10; eIF4H FP inh: -4; MT1-MMP act inh: 6; UUG fidelity: -24; CSC inhib: 7; PABP polyA inh: -9; MT1-MMP act inh RFP: -3

Results for CCOC(=O)c1c(NC(=O)CSc2ncn[nH]2)sc(C(=O)N(C)C)c1C ?
Rce1 inhib: inactive; MT1-MMP act inh: 8; UUG fidelity: -4; CSC inhib: -5; MT1-MMP act inh RFP: 1

Results for CCn1ccnc1CNC(=O)c1ccc2oc(CCCc3ccccc3)nc2c1 ?
Rce1 inhib: inactive; HIV Env fusion: -2; eIF4H FP inh: -7; MT1-MMP act inh: 1; UUG fidelity: -18; CSC inhib: -5; PABP polyA inh: 2; MT1-MMP act inh RFP: -3
